From PubChem BioAssay
MARV entry inh – qHTS for inhibitors of binding or entry into cells for Marburg Virus | Marburg virus pseudotyped entry inhibition, cell reporter; control for the full effect not named in the record; about a third of the inactives were read at about 46 µM | Potency, µM (highest dose often 37.8 µM), without a hit: top-dose activity change, negative = inhibition, hits mostly inhibitors | 300,000 tested, 1.8% active | AID 540276, 2011; active = well fitted inhibition curve with a large enough effect; inconclusive = small, poorly fitted or top-dose-only effect, or effect the other way; inactive = flat fitted curve, though single readings scatter; tested in HEK293 cells; about a fifth of its hits are not listed in these tables; note: % is set by controls: 0 for no effect and ±100 for the full control effect; luciferase read-out
StopGo reporter – High Throughput Screening for Foot and Mouth Disease Virus Antivirals; human cells with a luciferase reporter of 2A StopGo recoding; control for the full effect not named in the record; 410,000 tested, 1.2% active; Potency, µM (doses to about 57.9 µM), for the others: at the top dose signal change, negative = less light; AID 1159524, 2015; active = well fitted falling curve with a large enough effect; inconclusive = small, poorly fitted or top-dose-only effect; inactive = no such curve, though single readings can be large or run the other way; tested in HEK293T cells; note: % is set by controls: 0 for no effect and ±100 for the full control effect; nearly all actives have a fitted effect of over 45% in size; luciferase light after 4 h
Cruzain inh noDet – qHTS Assay for Promiscuous and Specific Inhibitors of Cruzain (without detergent); Cruzipain (Trypanosoma cruzi), P25779; purified cruzain, Z-FR-AMC fluorescence, no detergent; Potency, µM, for inactives: max response, negative = inhibition, usual class: inhibitors; 200,000 tested, 2.3% active;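 note: plate controls were enzyme without inhibitor for no effect and buffer without enzyme for full effect; nearly all actives have a fitted effect of over 40% in size; top concentration of the series not given in the record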
Target sequence (P25779 123-467 limits assumed): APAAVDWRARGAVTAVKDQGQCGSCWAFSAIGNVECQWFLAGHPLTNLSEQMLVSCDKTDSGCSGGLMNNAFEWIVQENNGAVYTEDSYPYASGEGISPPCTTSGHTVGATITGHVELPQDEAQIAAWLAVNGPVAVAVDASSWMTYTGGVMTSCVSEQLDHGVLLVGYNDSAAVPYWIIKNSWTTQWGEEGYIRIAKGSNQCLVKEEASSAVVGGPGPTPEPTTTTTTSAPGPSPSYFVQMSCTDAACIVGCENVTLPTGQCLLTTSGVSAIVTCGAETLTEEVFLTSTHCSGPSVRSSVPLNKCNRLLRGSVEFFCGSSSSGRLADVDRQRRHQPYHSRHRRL
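Detergent-free condition (0.00005% Triton X-100) in acetate buffer pH 5.5 with DTT. 1.5 nM enzyme and compound were pre-mixed 15 min, then 2 uM Z-FR-AMC substrate added; reaction progress from fluorescence change between first and third reads (60 s).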
RE007 growth inh – qHTS Assay for Inhibitors of the HIV-1 protein Vpr; S. pombe RE007 Vpr strain, BacTiter-Glo ATP luminescence, 24 h; control for the full effect not named in the record; Potency, µM (top dose mostly 92.2 µM), inactives show top-dose activity change, negative = less growth; 360,000 tested, 0.21% active; active = well fitted falling curve with a large enough effect; inconclusive = small, poorly fitted or top-dose-only effect; inactive = no such curve, though single readings can be large or run the other way;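 note: % is set by controls: 0 for no effect and ±100 for the full control effect; nearly all actives have a fitted effect of over 50% in size; the assay follows cell death caused by Vpr and the record does not say whether a fall means rescue or toxicity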
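Fission yeast RE007 carrying one integrated HIV-1 vpr copy, seeded at OD 0.01 in PMG+AL medium with 23 nL pinned compound. Grown 24 h at 30 degrees; viability read by BacTiter-Glo luminescence after 5 min.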
SARS PLP yeast – qHTS of Yeast-based Assay for SARS-CoV PLP; 330,000 tested, 0.19% active; S. cerevisiae expressing SARS-CoV PLpro, growth rescue; control for the full effect not named in the record; Potency, µM (titrated, usually from 32.9 µM), for the others: top-dose activity, positive = growth rescue; active means well fitted rising curve with a large enough effect; inconclusive means small, poorly fitted or top-dose-only effect; inactive means no such curve, though single readings can be large or run the other way; note: 0% is about no effect; nearly all actives have a fitted effect of over 55% in size; growth read by luminescence after 48 h
LASV entry inh – qHTS for Inhibitors of binding or entry into cells for Lassa Virus; Potency, µM (doses to about 37.9 µM), inactives show at the top dose activity change, negative = inhibition, hits mostly inhibitors; 300,000 tested, 1.2% active; Lassa virus pseudotype entry inhibition, cell reporter; control for the full effect not named in the record; active means well fitted inhibition curve with a large enough effect; inconclusive means small, poorly fitted or top-dose-only effect, or effect the other way; inactive means flat fitted curve, though single readings scatter; tested in HEK293 cells; note: % is set by controls: 0 for no effect and ±100 for the full control effect; nearly all actives have a fitted effect of over 50% in size; luciferase read-out
Cruzain inh Det – qHTS Assay for Promiscuous and Specific Inhibitors of Cruzain (with detergent). Cruzipain (Trypanosoma cruzi), P25779. purified cruzain, Z-FR-AMC fluorescence, 0.01% Triton. Potency, µM, without a hit: max response, negative = inhibition, hits mostly inhibitors. 200,000 tested, 0.43% active. AID 1478, 2009;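 note: plate controls were neutral wells for no effect and buffer without enzyme for full effect; nearly all actives have a fitted effect of over 40% in size; top concentration of the series not given in the record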
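Compounds were screened in titration against cruzain (1.5 nM) with 0.01% Triton X-100 to counter colloidal aggregation. Activity was the AMC fluorescence increase over 60 s after adding 2 uM Z-FR-AMC at pH 5.5.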
NS1 function inh – qHTS Assay for Inhibitors of Influenza NS1 Protein Function. S. cerevisiae slowed by influenza A NS1, growth recovery by OD600. Potency, µM (top dose mostly 46.1 µM), for inactives: at the top dose activity, positive = more growth. 270,000 tested, 0.4% active; active means well fitted rising curve with a large enough effect; inconclusive means small, poorly fitted or top-dose-only effect; inactive means no such curve, though single readings can be large or run the other way; note: nearly all actives have a fitted effect of over 50% in size
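Growth recovery, yeast-based: influenza A NS1 expressed in S. cerevisiae causes slow growth, and suppressors are detected by OD600. The parent strain without NS1 is used as positive control.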
An asterisk follows results filed as active; ? = inconclusive; . = no result given; & = joins results of further samples; ! = not confirmed by another sample; [ ] = another dose, or the depositor's remark. Unless noted, calls come from the whole dose curve; as a rule, active = well fitted curve in the direction sought with a large enough effect; inconclusive = small, poorly fitted or top-dose-only effect, or another doubt; inactive = no such curve, though single readings can be large; an effect the other way counts as inactive or inconclusive. Potency is the fitted concentration of half-maximal effect.

SMILES	MARV entry inh	StopGo reporter	Cruzain inh noDet	RE007 growth inh	SARS PLP yeast	LASV entry inh	Cruzain inh Det	NS1 function inh
COc1ccc(-c2csc(C)n2)cc1	6%	53%[activator]	2%	-5%	12%	6%	1.0%	-15%
CC1=C(C(=O)OC(C)C)C(c2c(O)ccc3ccccc23)NC(=O)N1 (stereo not drawn)	.	-16%	-4%	-6%	10%	.	5.3%	12%
COc1ccc(NC(=O)c2nn(C)c(=O)c3ccccc23)cc1S(=O)(=O)Nc1ccccc1Cl	.	86%[activator]	.	-20%	-1%	.	.	2%
COc1cccc(-c2nnc(SCN3C(=O)c4ccccc4C3=O)n2C)c1	?	-27%	-3%	18%	-2%	-20%	-3.7%	5%
O=C(CCN1C(=O)c2ccccc2S1(=O)=O)N1CCN(c2ccccc2)CC1	-20%	?	-9%	18%	1%	-2%	-1.7%	-14%
OC(Cc1cccnc1)c1ccccc1 (stereo not drawn)	18%	11%	.	1%	.	23%	.	.
Nc1nc(Cl)nc2c1ncn2[C@@H]1O[C@H](COP(=O)(O)OP(=O)(O)OP(=O)(O)O)[C@H](O)[C@H]1O	44%	.	-2%	.	.	.	2.2%	-6%
CCOC(=O)N1CCC(NC(=O)c2ccc3c(c2)sc2nc(-c4ccc(OC)cc4)cn23)CC1	.	.	5%	.	7%	.	-4.7%	7%
O=C(O)C1C2C=CC(C2)C1C(=O)Nc1ccc(C(=O)N2CCCCC2)c(Cl)c1 (stereo not drawn)	0%	-24%	2%	5%	-2%	19%	0.4%	7%
COc1ccc(C(=O)NC2CCCc3ccccc32)cc1OC1CCN(C(C)=O)CC1 (stereo not drawn)	.	2%	.	5%	6%	.	.	-1%
CCc1nonc1NC(=O)c1oc2c(C)c(C)ccc2c1C	.	14%	.	1%	-3%	.	.	-8%
CC(=O)N(Cc1cccnc1)c1nc2cc(C)cc(C)c2s1	.	10%	?	.	.	-9%[46.1 µM]	-9.5%	.
CCCCCC(=O)Nc1cc(S(=O)(=O)N2CCOCC2)ccc1N1CCCCC1	?	-7%	.	-6%	-7%	-20%	.	.
CCOC(=O)Cn1nc(C)c(NC(=O)c2ccc(Cl)c([N+](=O)[O-])c2)c1C	?	-23%	.	8%	-5%	-7%[46.1 µM]	.	.
COc1cc(CN2CCN(Cc3cn(C)c4ccccc34)CC2CCO)cc(OC)c1 (stereo not drawn)	.	-23%	.	2%	-9%	.	.	19%
Cc1ccc(C(=O)NC(=S)NNC(=O)c2cccc([N+](=O)[O-])c2)cc1	.	-3%	.	-10%	-11%	.	.	-25%
Cc1ccc(-c2csc3ncn(CC(=O)N4CCOCC4)c(=O)c23)cc1C	-10%	1%	?	7%	4%	-6%	9.9%	5%
Cc1ccc(OCCNC(=O)/C=C/c2ccco2)cc1C	.	-8%	.	-12%	-1%	.	.	17%
N#Cc1cccn1-c1nccc(-c2cccs2)n1	-18%[46.1 µM]	21%	.	-13%	-15%	1%[46.1 µM]	.	.
O=C(c1ccc(-c2cc3ccccc3oc2=O)cc1)N1CCN(c2ccc(Cl)cc2[N+](=O)[O-])CC1	3%	0%	?	-3%	-3%	-4%	-4.0%	30%
C=CCn1c(C)cc(C(=O)COc2ncnc3sccc23)c1C	?	.	-23%	10%	-4%	?	-1.2%	-12%
CC1=NN(C(N)=S)C(=O)C1N=Nc1ccc(C)cc1C (stereo not drawn)	7%	.	?	.	-11%	.	-17%	-206%
Cc1oc2c(O)c(O)ccc2c(=O)c1-c1cnn(-c2ccccc2)c1	-1%	-31%	12%	-2%	1%	-9%	-11%	-54%
O=C(O)CCCNc1ccc([N+](=O)[O-])c(NCCCC(=O)O)n1	16%[46.1 µM]	-5%	.	2%	0%	11%	.	9%
CC(C)CC(C(=O)OCC(=O)Nc1cccc(Cl)c1)N1C(=O)C2CC=CCC2C1=O (stereo not drawn)	-11%	-23%	-19%	7%	-5%	-21%	14µM*	-8%

Part of the list above in order of molar mass, lowest first.
SMILES	MARV entry inh	StopGo reporter	Cruzain inh noDet	RE007 growth inh	SARS PLP yeast	LASV entry inh	Cruzain inh Det	NS1 function inh
OC(Cc1cccnc1)c1ccccc1 (stereo not drawn)	18%	11%	.	1%	.	23%	.	.
Cc1ccc(C(=O)NC(=S)NNC(=O)c2cccc([N+](=O)[O-])c2)cc1	.	-3%	.	-10%	-11%	.	.	-25%
O=C(O)C1C2C=CC(C2)C1C(=O)Nc1ccc(C(=O)N2CCCCC2)c(Cl)c1 (stereo not drawn)	0%	-24%	2%	5%	-2%	19%	0.4%	7%

Some of the entries above, reformatted.
compound | MARV entry inh | StopGo reporter | Cruzain inh noDet | RE007 growth inh | SARS PLP yeast | LASV entry inh | Cruzain inh Det | NS1 function inh
O=C(O)CCCNc1ccc([N+](=O)[O-])c(NCCCC(=O)O)n1 | 16%[46.1 µM] | -5% | . | 2% | 0% | 11% | . | 9%
CC(C)CC(C(=O)OCC(=O)Nc1cccc(Cl)c1)N1C(=O)C2CC=CCC2C1=O (stereo not drawn) | -11% | -23% | -19% | 7% | -5% | -21% | 14µM* | -8%

(next part)
SMILES	MARV entry inh	StopGo reporter	Cruzain inh noDet	RE007 growth inh	SARS PLP yeast	LASV entry inh	Cruzain inh Det	NS1 function inh
Cn1cc(S(=O)(=O)CC(=O)Nc2ccc(Br)cc2)c2ccccc21	.	34%[activator]	4%	4%	-1%	.	-1.2%	-4%
Cc1cccc(Cc2nnc(CCC(=O)N3CCCCC3c3nccs3)o2)c1 (stereo not drawn)	2%[46.1 µM]	5%	.	1%	6%	-1%[46.1 µM]	.	7%
Cc1cc(=O)[nH]c(NN=C2CCC(C(C)(C)C)CC2)n1 (stereo not drawn)	.	6%	.	9%	0%	.	.	3%
Cc1sc2ncnc(N[C@@H](Cc3ccccc3)C(=O)O)c2c1C	3%[46.1 µM]	3%	.	-4%	-2%	-1%	.	1%
CCCN(CC(=O)Nc1ccc(F)c(F)c1F)C(=O)c1ccc(=O)n(Cc2ccccc2)n1	-24%	-27%	.	2%	5%	-24%	.	.
Cc1cc(S(=O)(=O)Nc2ccc(N3CCOCC3)cc2)ccc1Br	-6%[46.1 µM]	24%	.	-2%	-2%	?	.	-2%
Cc1oc2c(CN3CCCCC3C)c(O)ccc2c(=O)c1-c1ccccc1 (stereo not drawn)	2%	0%	.	-2%	0%	.	.	1%
O=C(NCc1ccco1)C(c1cccnc1)N(C(=O)Cn1nnc2ccccc21)c1ccccc1 (stereo not drawn)	1%&11%	19%	10%	-1%	-11%	4%	2.0%	-12%
O=C(NCc1ccc(Cl)cc1)N1CCc2ccccc2C1	?	43%[activator]	.	13%	0%	-2%[46.1 µM]	.	-4%
CCOc1ccc(S(=O)(=O)NCCC(=O)NCCc2ccc(C(C)C)cc2)cc1	?	?	.	1%	-6%	?	.	.
COC(=O)[C@@]1(Cc2ccc(F)cc2)[C@H]2c3cc(C(=O)N(C)C)n(Cc4ccc(OC)c(OC)c4)c3C[C@H]2CN1C(=O)c1ccccc1	?	-8%	?	21%	6%	?	-6.9%&-4.1%	-14%
CC(C)COc1ccc(-c2nn(-c3ccccc3)cc2/C=C2/SC(=S)N(CC(=O)O)C2=O)cc1	.	-27%	.	-5%	1%	.	.	?
CC1(C)Cc2ccccc2-c2nc(NN)[nH]c(=O)c21	.	-6%	.	3%	-1%	.	.	5%
CCOc1ccc2c(c1)NC(c1cccs1)=NC(c1ccc(F)cc1)=N2	1%[46.1 µM]	-18%	?	.	.	1%[46.1 µM]	-7.4%	.
COc1cc(C2C3=C(Nc4ncnn42)c2ccccc2CC3)cc(OC)c1OC (stereo not drawn)	0.73µM*!	8%	-1%	0%	-2%	?	-3.4%	1%
CCN(CC)c1ccc(/C=N/NC(=O)c2ccc3nc[nH]c3c2)cc1	12%[46.1 µM]	-2%	.	2%	1%	-6%[46.1 µM]	.	1%
Cc1ccccc1-c1nnn(CC(=O)Nc2ccc3c(c2)OCCO3)n1	-4%[46.1 µM]	46%[activator]	.	4%	-2%	25%	.	.
COCCc1nn2c(=O)cc(COC(=O)COc3ccc(F)cc3)nc2s1	.	-4%	-4%	.	.	-23%[46.1 µM]	-2.7%	.
CC(NC(=O)c1ccccc1)C(c1cccs1)N1CCOCC1 (stereo not drawn)	.	-17%	-1%	8%	11%	.	2.1%	7%
COc1cccc(Cn2c(=O)n(CC3CCC(C(=O)N4CCOCC4)CC3)c(=O)c3sccc32)c1 (stereo not drawn)	.	0%	27%	.	.	?	-3.0%	.
CCOc1ccc2ccccc2c1/C=N/NC(=O)CNC(=O)Cc1ccccc1	6%	0%	10%	11%	0%	4%	-1.0%	-8%
S=C(NCCSCc1ccc(Cl)cc1Cl)Nc1ccccc1	?	?	-17%	?	-22%	?	-11%	-131%
COc1ccc(N(CC(=O)NC2CCCCC2)C(=O)CNC(=O)c2cccs2)cc1OC	-1%[46.1 µM]	23%	.	-16%	0%	-6%[46.1 µM]	.	6%
COc1ccccc1C(=O)COC(=O)CSC(C)C(=O)Nc1cc(C)on1 (stereo not drawn)	21%	-5%	.	-2%	1%	4%	.	.
CN(C)S(=O)(=O)c1ccc(NC(=S)NC(=O)C2CCC2)cc1	.	0%	.	14%	-5%	.	.	0%
Cn1c(Cc2cccs2)nnc1SCC(=O)Nc1ccccc1	7%	-4%	.	15%	3%	?	.	12%
O=c1c(Cl)c(N2CCN(S(=O)(=O)c3ccc(F)cc3)CC2)cnn1-c1cccc(Cl)c1	?	-28%	1%	-14%	14%	1%	1.5%	2%
Cc1ccc(NC(=O)c2ccc(F)c(S(=O)(=O)N3CCc4ccccc4C3)c2)cc1F	.	0%	?	.	.	-9%[46.1 µM]	-0.1%	.
